Compound activity from PubChem.
VDR inhibitor = Inhibitors of the vitamin D receptor (VDR): qHTS | Vitamin D3 receptor (Homo sapiens), P11473 | VDR-SRC2-3 peptide fluorescence polarization, 2 h | Potency, µM, inactives show max response, negative = inhibition, usual class: inhibitors | hit rate 0.93% among 400,000 | AID 504847, 2011; active means well fitted inhibition curve with a large enough effect; inconclusive means small, poorly fitted or top-dose-only effect, or another doubt; inactive means no such curve, though single readings can be large or run the other way; further: series mostly up to about 120 µM
Target sequence (P11473 whole entry, looked up): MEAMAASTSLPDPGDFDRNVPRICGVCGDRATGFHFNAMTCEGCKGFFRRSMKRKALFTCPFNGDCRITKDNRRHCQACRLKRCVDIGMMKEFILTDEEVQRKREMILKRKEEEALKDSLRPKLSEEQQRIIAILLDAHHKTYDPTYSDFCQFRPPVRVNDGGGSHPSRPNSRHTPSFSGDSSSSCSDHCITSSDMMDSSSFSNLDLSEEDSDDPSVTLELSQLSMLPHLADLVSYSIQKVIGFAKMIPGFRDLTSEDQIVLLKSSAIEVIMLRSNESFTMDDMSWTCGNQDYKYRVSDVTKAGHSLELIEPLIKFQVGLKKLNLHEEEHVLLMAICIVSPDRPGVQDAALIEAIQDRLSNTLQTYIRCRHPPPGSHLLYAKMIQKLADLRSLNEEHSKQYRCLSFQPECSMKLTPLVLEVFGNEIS
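The screen uses fluorescence polarization to detect compounds that interfere with recruitment of the SRC2-3 coactivator peptide to VDR; plates are read after 2 h at room temperature.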
Numbers without * were called inactive; ? = inconclusive; & = joins results of further samples. On the % scale 0 is the no-effect control and ±100 the full control effect; potency means the concentration at half of the fitted maximal effect.

Molecule,VDR inhibitor
CCOC(=O)C1CCN(S(=O)(=O)c2ccc3c(c2)NC(=O)C(C)C(=O)N3)CC1 (configuration not stated),3.3%&6.8%
Oc1ccc(/C=N/NC2=NCCCCC2)cc1,-13.0%
CCC(C)CCN1C(N(C)C)=NC[C@@H]1C (some centres not stated),-1.1%
CN1C(=O)CSc2ccc(NC(=O)N3CCN(c4ccccc4)CC3)cc21,8.7%
COc1ccc(OC)c(NC(=O)C2CCCN(S(=O)(=O)c3ccc4[nH]c(=O)ccc4c3)C2)c1 (configuration not stated),3.8%
O=[N+]([O-])c1c(Nc2ccccc2)ccc2nonc12,24.0%
O=C(/C=C/c1ccccc1)N/C(=C/c1ccccc1)C(=O)N1CCCCC1,-10.4%
Cc1ccsc1/C=C1\SC(N)=NC1=O,12.7%
C=CCCC(=O)Nc1nc(C)c(-c2csc(Nc3ccc(Cl)cc3Cl)n2)s1,-13.2%
Cc1c(Cl)cccc1NC(=O)c1ncn(-c2ccccc2)n1,2.5%

Additional results follow.
Molecule,VDR inhibitor
S=c1[nH]nc(-c2ccncc2)n1/N=C/c1cn(-c2ccccc2)nc1-c1ccc(Cl)cc1,-1.9%
Cc1nc(N)sc1Cc1ccc2c(c1)OCO2,5.7%
COCCC(=O)N1CCC(C(=O)Nc2ccc(Oc3ccccc3)nc2)CC1,4.3%
CC(=O)c1cc(CN2CCC(C(=O)Nc3ccc(-n4nc(C)cc4C)cc3)CC2)cs1,-8.6%
Cc1cnc(C(=O)Nc2nc(-c3ccccc3)cs2)cn1,7.3%
O=C(NCc1ccccc1F)c1ccc(S(=O)(=O)Nc2cccc(C(F)(F)F)c2)cc1,-8.1%
CC1CN(c2oc(-c3cccs3)nc2C#N)CC(C)O1 (configuration not stated),18.8%
COc1c(Cl)cc(Cl)cc1C(=O)Nc1cccc(-c2nc3ccccc3o2)c1C,-2.1%
COc1cccc(C2=NOC(C(=O)Nc3cccnc3)C2)c1 (configuration not stated),-10.2%
CCSc1nnc2c3cc(CC)ccc3n(C)c2n1,-10.8%

Other entries follow.
Molecule,VDR inhibitor
COc1ccccc1/C=C(\C#N)c1nc(-c2cc3ccccc3oc2=O)cs1,-7.9%
CCCn1c(C)cc(/C=C(\C#N)C(=O)OCC(=O)Nc2cccc(OC)c2)c1C,2.2%
CCn1c(=O)c(C(=O)CN(C)Cc2cccc(OC)c2OC)c(N)n(Cc2ccccc2)c1=O,0.3%
Cc1ccccc1-n1ccnc1SCC(=O)O,-6.5%
N#C/C(=N\O)c1nc(-c2ccccc2)cs1,10.5%&0.9%
O=C(Nc1nonc1-c1ccc(Br)cc1)c1ccco1,8.9%
CC(=O)Nc1ccc(NC(=O)C(C)OC(=O)C(C)SCC(=O)Nc2ccc(F)cc2)cc1 (configuration not stated),-11.2%
COc1ccc(NC(=O)C2CCCN(S(=O)(=O)c3ccccc3)C2)c(OC)c1 (configuration not stated),-8.6%
O=S(=O)(c1ccc(F)cc1)N1CCN(c2ccccc2)CC1,-20.7%
CC1CCC2C(=O)N(c3ccccc3OC(=O)c3ccccc3)C(=O)C2C1 (configuration not stated),4.5%

Following part:
Molecule,VDR inhibitor
O=C(COn1nnc2ccc(C(F)(F)F)cc21)Nc1nnc(-c2ccccc2)o1,-13.8%
O=C(Cc1ccccc1[N+](=O)[O-])NC1CCN(Cc2ccccc2)CC1,-24.0%
Cc1sc(NC(=O)CSc2nnc(N)s2)c(C#N)c1C,1.0%
N=c1ccn2c(n1)O[C@H]1[C@H](O)[C@@H](CO)O[C@H]12,3.8%&12.2%&1.0%
Cc1occc1C(=O)Nc1cc(C(F)(F)F)ccc1Cl,-9.7%
O=C(NNC(=O)c1n[nH]c(=O)c2ccccc12)c1ccc(Br)cc1,14.8%
O=C(NC[C@@H]1CC[C@@H](Cc2ccc(-c3ccccc3)cc2)O1)Nc1ccc(Br)cc1,-21.4%
Cc1ccc(-c2nc(SCC(=O)Nc3cc(S(=O)(=O)N4CCCCC4)ccc3Cl)n[nH]2)cc1,1.6%
Cc1cccc(C)c1NC(=O)C(NC=O)c1ccc(Cl)cc1 (configuration not stated),-14.4%
COC(=O)c1ccc(/C=N/NC(=O)CC(=O)NC2CCCCC2)cc1,-4.1%

Other compounds follow.
Molecule,VDR inhibitor
O=C(N/N=C/c1ccc(Cl)c([N+](=O)[O-])c1)C1CC1,-14.5%
Cc1ccc(OCc2nnc(-c3ccccc3)o2)cc1,8.5%
CCOC(=O)c1nn(-c2ccccc2)c(C#N)c1NC(=O)c1nn(CC)cc1Br,7.6%
CCOC(=O)C1=CN(Cc2ccco2)S(=O)(=O)N(C)C1c1ccc(C(F)(F)F)cc1 (configuration not stated),-0.9%
COc1ccc(NC(=O)c2cnc(NS(=O)(=O)c3ccccc3)nc2)cc1,2.6%
Cc1ccc(NC(=O)C(=O)NCc2ccco2)c(C)c1,?
Nc1cc(OCc2ccccc2)ccc1OCc1ccccc1,15.7%
O=C(O)c1ccc(COc2ccc(Cl)cc2)o1,-9.2%
CO,-18.7%
CCCNC(=O)/C=C/c1ccc(S(=O)(=O)Nc2ccccc2OC)cc1,-8.9%

Quoted at random: five entries already listed
Molecule,VDR inhibitor
Cc1ccc(NC(=O)C(=O)NCc2ccco2)c(C)c1,?
CO,-18.7%
CCCNC(=O)/C=C/c1ccc(S(=O)(=O)Nc2ccccc2OC)cc1,-8.9%
Nc1cc(OCc2ccccc2)ccc1OCc1ccccc1,15.7%
CCOC(=O)C1=CN(Cc2ccco2)S(=O)(=O)N(C)C1c1ccc(C(F)(F)F)cc1 (configuration not stated),-0.9%

(list continues)
Molecule,VDR inhibitor
Cc1ccccc1N1CCN(c2ncnc3scc(-c4cccs4)c23)CC1,-1.5%
COc1ccc(S(=O)(=O)N(CC(=O)NCc2ccco2)c2ccccc2)cc1OC,-2.6%
N#Cc1ccc(C(=O)Nc2nnc(-c3ccco3)o2)cc1,-20.9%
Cc1onc(-c2c(F)cccc2Cl)c1C(=O)N1CCCc2ccccc21,26.0%
O=C(/C=C/c1cccc(Cl)c1)N1CCC(Cc2ccccc2)CC1,-3.7%
O=C1NN(c2ccc(Br)cc2)C(=O)/C1=C\c1ccc(O)cc1O,-2.4%
CCOC(=O)C1(C)C=C(Nc2ccc(O)cc2)C(=O)N1c1ccc(O)cc1 (configuration not stated),-18.0%
COc1ccccc1C(=O)N/N=C/c1ccc(Cl)s1,0.7%
COc1ccc(-c2cc(C(=O)Nc3c(C)nn(Cc4ccc(Cl)cc4)c3C)no2)cc1,-5.9%
Cc1cc(C)c(C(=O)CSc2nnc(N)s2)c(C)c1,-12.1%

(cont.)
Molecule,VDR inhibitor
COc1ccc(C)cc1N(C(=O)c1ccccc1)c1nc2ccccc2s1,-10.4%
CC(=O)c1c(C)[nH]c(C(=O)CSc2nnc(-c3cccs3)n2Cc2ccccc2)c1C,?
COc1ccc(-n2cc(-c3ccc(Cl)cc3)[nH]c2=S)cc1,-14.5%
Cc1ccc(NC(=O)CN2C(=O)NC(C)(CC(C)C)C2=O)cc1F (configuration not stated),-20.5%
CC(C)Oc1ccc(CNC(=O)c2ccc3c(c2)N(C)CCS3)cc1,-16.4%
Cc1cc(C)nc(N/C(=N\S(=O)(=O)Cc2ccccc2)Nc2ccccc2Br)n1,3.6%
C=CCNc1sc(C(=O)c2cccs2)c(N)c1C#N,10.1%
O=C(c1ccc2oc(Cc3ccc(Cl)cc3)nc2c1)N1CC[C@H](O)C1,-1.0%
NC(=O)CC(NC(=O)Cc1cccc2ccccc12)c1ccc(NCCN2CCCCC2)c([N+](=O)[O-])c1 (configuration not stated),-1.6%
CC(C)C[C@H]1COCCS(=O)(=O)N1Cc1ccc(Cl)c(Cl)c1,-9.9%

Later entries.
Molecule,VDR inhibitor
Cc1ccc(OCC(=O)Nc2ccc(OCc3cc(=O)n4ccsc4n3)cc2)cc1,-0.5%
CNc1nc(C)nc(-n2nc(C)cc2C)n1,4.3%
Cc1cc(C)c2sc(N(CCN(C)C)C(=O)CCS(=O)(=O)c3ccccc3)nc2c1,-17.8%
CCOC(=O)C1=C(C)NC(C)=C(C(=O)OCC)C1C(=O)OCC(=O)N(C)Cc1ccccc1,-7.4%
Nc1ccccc1SCCS(=O)(=O)c1ccc(Cl)cc1,-6.9%
c1csc(-c2nnsc2-c2nc3ccccc3[nH]2)c1,1.7%
CC(=O)c1c(NCCc2ccccc2)nc(=S)n(-c2ccccc2)c1C,-27.5%
Cc1oc2cc3oc(=O)c(CC(=O)N[C@@H](C)C(=O)NC(Cc4ccc(Cl)cc4)C(=O)O)c(C)c3cc2c1C (some centres not stated),-10.4%
Cc1ccc(N(CC(=O)NC2CCCCC2)C(=O)CNC(=O)c2cccs2)cc1,-14.3%
COC(=O)c1ccc(NC(=O)CCN2C(=O)C3CC=CCC3C2=O)cc1 (configuration not stated),-1.9%

New compounds follow:
Molecule,VDR inhibitor
Cc1ccc(S(=O)(=O)N2CCN(CC(=O)NC(=O)NCc3ccco3)CC2)cc1C,-15.3%
CCN[C@H]1CN(CCCOC)S(=O)(=O)c2sc(S(N)(=O)=O)cc21,0.8%
COc1cccc(C(=O)NNS(=O)(=O)c2ccc(C)cc2)c1,-2.1%
CCOC(=O)C1=NN(N=O)C2(CC(=O)N(c3cc(C)cc(C)c3)C2=O)C1 (configuration not stated),-5.7%
CCCCC(=O)Nc1cccc(NC(=O)c2ccc(Br)o2)c1,-7.5%
COc1cc(CC(=O)OCc2cccc([N+](=O)[O-])c2)cc(OC)c1OC,9.4%
Cc1cc(C(=O)CCl)c(C)n1-c1ccon1,2.1%
S=C(c1ccc(OCc2ccccc2)cc1)N1CCCC1,-4.3%
Cc1[nH]c2ccc(C(=O)OC(C)C(=O)NC3(C#N)CCCCC3)cc2c1C (configuration not stated),3.0%
C=CCc1ccc(OCCCOc2ccc(C)c(C)c2)c(OC)c1,1.7%

The results go on.
Molecule,VDR inhibitor
Cc1[nH]c(C(=O)N/N=C/c2ccc(N(C)C)cc2)c(C)c1C(=O)N/N=C/c1ccc(N(C)C)cc1,3.8%
Cc1cccc(-n2c(C)cc(C=C3C(=O)c4ccccc4C3=O)c2C)c1,-3.1%
CC1(c2ccccc2Cl)NC(=O)N(CC(=O)N2CCN(S(=O)(=O)c3ccccc3)CC2)C1=O (configuration not stated),4.0%
CCN(C(=O)CSc1nc(-c2ccc(C(C)C)cc2)no1)c1cccc(C)c1,3.1%
COC(=O)c1cn(-c2ccccc2)nc1-c1ccc(OC)cc1,0.5%
COC(=O)c1cc2ccsc2n1Cc1nc(-c2cccc(Cl)c2)oc1C,?
O=C(NCCc1ccccc1)c1ccc(CSc2nc3ccncc3n2Cc2cccc(F)c2)cc1,18.0%
O=C(Cc1c(Cl)cccc1Cl)Nc1cccc(S(=O)(=O)N2CCOCC2)c1,-17.6%
COc1cccc(CNC(=O)CNC(=S)N(Cc2ccccc2)Cc2ccccc2F)c1,-5.0%
COCCNCCCOc1ccc(Br)cc1Cl,4.0%

Later entries
Molecule,VDR inhibitor
CCOC(=O)C1(C)NC(c2cc(OC)c(OC)c(OC)c2)C2C(=O)N(CC)C(=O)C21 (configuration not stated),-4.1%
C=Cc1ccc(Cn2c(=O)cc(C)c3c(C)nn(-c4ccccc4)c32)cc1,-0.6%
O=C(NCc1cccc2[nH]ccc12)C1CCC(=O)N(CCc2ccccc2)C1 (configuration not stated),-10.3%
S=C(c1ccccc1)N1CCCc2ccccc21,-5.9%
COc1ccc(NC(=O)CSc2ccccn2)c([N+](=O)[O-])c1,8.7%
COc1ccc([N+](=O)[O-])cc1NS(=O)(=O)c1cc(C(=O)N2CCN(C)CC2)ccc1OC,1.9%
O=c1cc(CCc2ccccc2)oc2cccc(O)c12,-22.2%
CCN1CCCc2cc(CN(CCN3CCOCC3)C(=O)Nc3ccc(C)c(C)c3)ccc21,2.8%
NC(=O)Nc1ccc(F)cc1,-4.7%
CCN(CC)S(=O)(=O)c1ccc2c(c1)c(=O)c(C(=O)NCc1cccs1)cn2C,5.8%

New compounds follow:
Molecule,VDR inhibitor
COc1cc(OC)c(NC(=O)Cn2c(=O)cc(C(F)(F)F)c3c(C)nn(C)c32)cc1Cl,-3.3%
COc1ccc(O)c(/C=N/NC(=O)c2ccc(N3CCCC3=O)cc2)c1,-12.4%
COc1ccccc1OCC(=O)Nc1cc(S(=O)(=O)N2CCCCC2)ccc1N1CCCCC1,-6.3%
O=C1CN2NC(=S)N(c3ccccc3)C2=CN1c1ccc(Cl)cc1,6.7%
CNC(=O)C(Sc1nc(C)nc2c1oc1ccccc12)C(C)=O (configuration not stated),-9.0%
O=C(c1cc(-c2cccs2)nc2ccccc12)N1CCN(CCO)CC1,-16.7%
Cc1ccc(C(=O)Nc2cccc(C(=O)O)c2)cc1S(=O)(=O)N1CCCCC1,-1.5%
CCOC(=O)C1=C(c2ccccc2)Nc2ncnn2C1c1cc(OC)cc(OC)c1OC (configuration not stated),6.6%
O=C(O)CN=CC1=C(O)CC(c2ccccc2)CC1=O (configuration not stated),7.0%
C#CCOc1ccc(C2C3=C(CC(C)(C)CC3=O)N(CC(=O)O)C3=C2C(=O)CC(C)(C)C3)cc1OC,-1.0%

(cont.)
Molecule,VDR inhibitor
CC(=O)C1(C)OC(N)=C(C#N)C(c2ccccc2)C1(C#N)C#N (configuration not stated),3.3%
COc1ccc(OCC(O)CN2CCN(c3ccc(Cl)cc3)CC2)cc1 (configuration not stated),-17.3%
O=C(CSc1nnc(NC(=O)C2CC2)s1)Nc1ccc(F)cc1F,-12.9%
Cc1ccc2nc(-c3ccc(O)c(O)c3)cn2c1,16.2%
N#CCCN(C(=O)CN1C(=O)NC2(CCCC2)C1=O)c1ccccc1F,4.5%

This is a subset; rates above refer to the full screens.
